From PubChem BioAssay
Measles inh: inhibitors of measles virus growth in infected cells; infected Vero cells, GFP fluorescence, 64 h; hits give low values; z-score (test concentration not listed); 0.1% of 33,000 active; AID 745;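 active = z-score under -3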;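 note: score is relative to mean and SD of the compound wells of a plate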
The depositor's hits bear a star. These rows are one share of the data; the hit share may differ from the screen's.

Measles inh	Molecule
-0.38	NC(=O)CSc1oc(-c2cccs2)nc1S(=O)(=O)c1ccc(F)cc1
-1.3	CC1=Nc2cc(C(=O)NC3CC3)ccc2Sc2ccc(Br)cc21
0.51	CN(Cc1ccccc1)C(=O)CSc1nc2ccsc2c(=O)n1Cc1ccc2c(c1)OCO2
-0.31	c1ccc(-c2nc3sc(-c4ccccc4)nc3s2)cc1
0.5	COc1cc2nc(=S)n3c(c2cc1OC)NC(CCC(=O)N1CCN(Cc2ccc4c(c2)OCO4)CC1)C3=O (stereo not drawn)
-0.7	COc1ccc(C2Nc3ccccc3C(=O)N2Cc2ccco2)cc1COc1cccc(C)c1C (stereo not drawn)
-0.03	COC(=O)C1=C(C)NC(=O)CC1c1ccccc1 (stereo not drawn)
0.89	CCn1c(C)csc1=Nc1cccc(C(F)(F)F)c1
-0.72	O=c1oc2ccccc2c(O)c1C=Nc1ncccn1
-0.3	Clc1ccc(-n2cc(-c3ccccc3)c3c(NCc4cccs4)ncnc32)cc1
0.49	CCC(C)NC(=O)c1ccc2c(=O)n(Cc3ccccc3OC)c(=S)[nH]c2c1 (stereo not drawn)
-0.77	CCOC(=O)CN=C1NC(=S)N(c2ccc(Br)cc2)C12CCCCC2
-0.21	CC1Cc2ccccc2N1C(=O)c1ccc(N2CCCCC2)c([N+](=O)[O-])c1 (stereo not drawn)
-0.82	CC(=O)c1cc(F)c(N2CCCC2)cc1C
-0.9	CCOC(=O)c1c(NC(=O)c2ccccc2C(=O)O)sc2c1CCC2
0.47	COc1nc(Nc2ccccc2-c2ccccc2)nc(OC)n1
-0.32	COc1ccc(NC(=O)c2c(NC(=O)c3ccccc3F)sc3c2CCC(C)C3)cc1 (stereo not drawn)
0.5	CC(=O)n1cc(N2C(=O)C3C4C=CC(C4)C3C2=O)c(=O)[nH]c1=O (stereo not drawn)
0.97	CCc1nnc(NC(=O)CCC(=O)O)s1
-0.95	O=C(O)C1C2CCC(C2)C1C(=O)NCc1ccco1 (stereo not drawn)
-0.34	Cc1ccc(C)c(-n2cc(-c3ccccc3)nc2SCC(=O)Nc2ccc(F)cc2)c1
-1.1	CCc1ccccc1Nc1c2c(nc3ccccc13)CCC2
-0.49	COCCNC(=O)c1ccc(Cl)cc1[N+](=O)[O-]
0.73	COc1ccc(CCNC(=O)C2c3ccccc3C(=O)N2C(C)c2ccccc2)cc1OC (stereo not drawn)
0.5	CCOC(=O)CC(=O)c1[nH]c(C)c(C(=O)OCC)c1C
0.2	O=c1oc2c3c(ccc2c2c1CCC2)OCN(c1ccc(Cl)cc1)C3
-0.51	Cc1cc(C)cc(NC(=O)C2C3C=CC4(O3)C2C(=O)N(CCC2=CCCCC2)C4C(=O)NC2CCCC(C)C2C)c1 (stereo not drawn)
-1.2	O=C(Cn1ncc2c(=O)oc3ccccc3c21)N1CCN(c2ccccn2)CC1
1.7	COc1ccccc1C(=O)Nc1ccc(C)cc1C(=O)c1ccccc1
0.42	O=c1oc2ccc3ccccc3c2cc1-c1nnc(Nc2ccc(F)cc2)s1
0.33	CCc1ccc(-c2nc(NC(C)=O)c3c(=O)oc4ccccc4c3n2)cc1
-0.84	C=CCn1c(N)c(C(=O)Nc2ccc(C)cc2)sc1=S
1.1	O=C(O)CCn1cc(I)c(=O)[nH]c1=O
-0.63	CCCCCNc1nc(CCC)c2c(c1C#N)CCCC2
-1.2	Cc1ccc(-c2[nH]c3ccccc3c2SCCNC(=O)c2ccc(S(=O)(=O)N3CCCC3)cc2)cc1
-0.01	Cc1ccc(NCC(O)Cn2c3ccccc3c3ccccc32)cc1Cl (stereo not drawn)
-0.97	CCOC(=O)C(CC)Sc1nc2c(c(=O)n1-c1ccc(F)cc1)SCC2 (stereo not drawn)
-0.55	COc1cc(CN2CCN(C(=O)CC(C)C)CC2)c([N+](=O)[O-])cc1OC
0.63	N#Cc1c(NC(=O)c2cnn3c2NC(c2cccs2)CC3C(F)(F)F)sc2c1CCCC2 (stereo not drawn)
-0.48	CCOc1ccc(C2=Nn3c(nnc3-c3ccc(Br)cc3)SC2)cc1
-0.74	CCCCSc1nnc2c(n1)[nH]c1c(C)cc(C)cc12
-0.72	O=C(NCC1(c2ccccc2)CCOCC1)c1ccccc1Cl
1.1	CCCCOC(=O)C1=C(C)Nc2ncnn2C1c1ccc(F)cc1 (stereo not drawn)
-0.51	O=c1oc2cc(OCCc3ccccc3)ccc2c2c1CCC2
0.08	COC(=O)C1=C(C)NC2=C(C(=O)c3ccccc32)C1c1ccc([N+](=O)[O-])cc1 (stereo not drawn)

Part of the list above in another layout.
| canonical_smiles | Measles inh |
| --- | --- |
| CC(=O)c1cc(F)c(N2CCCC2)cc1C | -0.82 |
| CCOC(=O)c1c(NC(=O)c2ccccc2C(=O)O)sc2c1CCC2 | -0.9 |
| COc1nc(Nc2ccccc2-c2ccccc2)nc(OC)n1 | 0.47 |
| COc1ccc(NC(=O)c2c(NC(=O)c3ccccc3F)sc3c2CCC(C)C3)cc1 (stereo not drawn) | -0.32 |

Next structures
Measles inh	Molecule
1.5	COC(=O)c1c(C)[nH]c(C(=O)CSc2nc(C)nc3sc4c(c23)CCC4)c1C
-0.58	COc1ccc2c(c1)c1c3n2CC(O)CN=C3CCC1 (stereo not drawn)
0.39	O=c1ccc(-c2ccccc2)n[nH]1
0.32	CCCSc1nnc2c(n1)OC(c1ccc(N(C)C)cc1)Nc1ccccc1-2 (stereo not drawn)
-0.35	COc1ccc(C2=NN(CC(=O)NCCCN3CCCCC3C)C(=O)CC2)cc1 (stereo not drawn)
-0.26	CCn1cc(C(=O)O)c(=O)c2cc(F)c(N3CCN(S(=O)(=O)c4ccc(OC)cc4)CC3)cc21
0.5	COC(=O)c1cccc(NC(=O)c2cc(C(C)(C)C)cc(C(C)(C)C)c2)c1
0.44	CC(=O)NC1=NN(C(C)=O)C(c2ccc(N(C)C)cc2)S1 (stereo not drawn)
0.52	COCCCNC(=O)CN1CCN(Cc2cccc(C)c2)C1=O
0.81	O=C(O)CCCC(=O)N1CC=C(c2ccccc2)CC1
0.96	COc1ccc(CCNC(=O)C(=O)Nc2ccc(C)c(C)c2)cc1OC
-0.66	O=C(NC1CCCC1)c1ccc2c(c1)N(Cc1cccc(F)c1)C(=O)c1ccccc1S2
0.59	Cc1c(C(=O)NCc2cccnc2)oc2ccc(S(=O)(=O)N3CCCCCC3)cc12
-0.02	CN(C(=O)Cn1ncc2c(=O)oc3ccccc3c21)c1ccc(Cl)cc1
1.7	O=C(O)CNC(=O)c1cncc(O)c1

Next section; it opens with the three that closed the last part.
Measles inh	Molecule
0.59	Cc1c(C(=O)NCc2cccnc2)oc2ccc(S(=O)(=O)N3CCCCCC3)cc12
-0.02	CN(C(=O)Cn1ncc2c(=O)oc3ccccc3c21)c1ccc(Cl)cc1
1.7	O=C(O)CNC(=O)c1cncc(O)c1
-0.61	CC(C)Sc1nc2c([nH]c3ccccc32)c(=O)n1-c1ccccc1
-1.9	CC1=CN2C(=NC(=O)CC2(C)C(=O)NC2CCCCC2C)C=C1 (stereo not drawn)
0.78	N=C1CCCC(=O)/C1=C(\O)CC1CC(=O)NC(=O)C1
-0.64	COCCNC(=O)C1c2ccccc2C(=O)N(c2ccc(OC)cc2)C1c1ccc(OC)cc1 (stereo not drawn)
-0.67	COc1cccc(-n2ccnc2SCC(=O)Nc2cc(C(F)(F)F)ccc2Cl)c1
-0.88	Cc1cc(C)nc(NC(N)=NCCC(C)C)n1
0.45	O=C(Nc1nnc(CCS(=O)(=O)c2ccc(Br)cc2)s1)c1cccs1
-1.5	COc1cccc(C(=O)Nc2c3c(nn2-c2ccc(Oc4ccccc4)cc2)CSC3)c1OC
-1.2	CCOC(=O)c1c(Cl)[nH]c2ccccc2c1=O
-0.11	CCN1/C(=C/c2sc3ccccc3[n+]2CCO)Sc2ccccc21
1.3	O=C(Nc1ccc2oc(-c3ccccc3)nc2c1)c1ccc(Cl)cc1
-0.18	CCOC(=O)c1ccc(Nc2c(C(=O)OCC)cnc3c2ccc2ccccc23)cc1
-1.2	O=C(Cc1c[nH]c2ccccc12)N(Cc1cccs1)C1(C(=O)NC2CCCCC2)CCCCC1
-0.07	Clc1ccccc1-c1noc(C2CCC(c3ccccc3)CC2)n1 (stereo not drawn)
4.8	O=c1[nH]c2c(s1)C(c1ccc(-c3ccc([N+](=O)[O-])cc3)o1)C1C3CCC(C3)C1S2 (stereo not drawn)

Some of the entries so far, field by field.
compound: CC1=Nc2cc(C(=O)NC3CC3)ccc2Sc2ccc(Br)cc21
  Measles inh: -1.3
compound: COc1cc(CN2CCN(C(=O)CC(C)C)CC2)c([N+](=O)[O-])cc1OC
  Measles inh: -0.55

Remaining list, next part.
Measles inh	Molecule
-1.8	CCc1ccccc1NC(=O)c1cc(S(=O)(=O)N2CCc3ccccc32)ccc1F
-0.48	COc1ccccc1-n1nc(C(=O)N2CCCc3ccccc32)c2ccccc2c1=O
0.3	Cc1c(C(=O)Nc2ccccc2O)cccc1[N+](=O)[O-]
-0.55	O=C(c1cc2c(=O)n3ccccc3nc2s1)N1CCOCC1
-0.07	Cc1cc2nc3c(=O)c(=O)c3nc2cc1C
-0.23	CC(C)COC(=O)c1ccc(NS(=O)(=O)c2ccccc2)cc1
3.9	CCS(=O)(=O)N1N=C(c2cccc(NS(C)(=O)=O)c2)CC1c1ccccc1 (stereo not drawn)
-1.1	COc1cccc(NC(=O)CCN2CC(C)OC(C)C2)c1 (stereo not drawn)
-0.88	O=C(CSc1nnc(-c2ccco2)c(-c2ccco2)n1)Nc1ccc(Oc2ccc(Cl)cc2)cc1
1.4	COc1ccc(Cl)cc1NC(=O)CN(Cc1ccccc1)S(=O)(=O)c1ccc(C)cc1
0.42	Cc1ccc(C(=O)C[n+]2ccc3ccccc3c2)cc1[N+](=O)[O-]
-0.45	Cc1cccc(Oc2c(C(F)(F)F)oc3cc(OC(=O)c4ccco4)ccc3c2=O)c1
-0.23	COc1ccc(N2CCC(CNC(=O)Nc3ccc(OC)cc3OC)C2)cc1 (stereo not drawn)
0.53	CSc1nc2ccccc2n1Cc1c(C)ccc2ccccc12
-0.12	CCOCCCn1c(=S)[nH]c2cc(C(=O)N3CCC(C(N)=O)(N4CCCCC4)CC3)ccc2c1=O
-0.64	CCOC(=O)C(C)(C)Sc1nc2c(cnn2-c2ccc(F)cc2)c(=O)[nH]1
0.22	CCn1c2ccccc2c2cc(NC(=O)c3cc4cc5ccc(C)cc5nc4o3)ccc21
-0.26	CC1(C)Cc2c(sc(NC(=O)C(Cc3ccccc3)N3C(=O)c4ccccc4C3=O)c2C#N)C(C)(C)N1 (stereo not drawn)
0.47	CC(C)Cc1ccc(S(=O)(=O)Nc2cccc(Br)c2)cc1
1.3	CCCNC(=O)c1cnn2c(C)c(Cc3ccccc3C)c(C)nc12
0.65	O=C(c1ccc2c(=O)n(Cc3ccc(Cl)cc3)c(=S)[nH]c2c1)N1CCN(c2ccccn2)CC1
-0.5	CSc1ccc(CN2CCN(Cc3c[nH]c4ccccc34)CC2)cc1
-2.7	O=C1c2cccc(F)c2C(=O)c2c1cccc2N1CCCCC1
-1	O=C(c1nn(-c2ccc(Cl)cc2)c(=O)c2ccccc12)N1CCN(c2ccccc2)CC1
0.4	CCOC(=O)c1c(CN2CCOCC2)oc2ccc(O)cc12
0.92	CCC1Oc2ccc(Cl)cc2N(CC(=O)NCCc2ccc(OC)c(OC)c2)C1=O (stereo not drawn)
0.72	CCOc1cccc(C=Nc2ccc(NC(=O)c3cccc(Cl)c3)cc2)c1O
0.34	Cc1cc(NC(=O)CSc2nc(NCCc3ccccc3)c3ccccc3n2)no1
0.06	CCN(CCCNC(=O)C1c2ccccc2C(=O)N(C)C1c1cn(C)c2ccccc12)c1cccc(C)c1 (stereo not drawn)
-0.87	Cc1ccc(NC(=O)C2c3ccccc3C(=O)N(C)C2c2cn(C)c3ccccc23)c(Cl)c1 (stereo not drawn)

Shown bar-delimited: entries from further up.
Molecule | Measles inh
COc1cccc(-n2ccnc2SCC(=O)Nc2cc(C(F)(F)F)ccc2Cl)c1 | -0.67
Cc1cc(C)nc(NC(N)=NCCC(C)C)n1 | -0.88
O=C(Nc1nnc(CCS(=O)(=O)c2ccc(Br)cc2)s1)c1cccs1 | 0.45

Remaining list, next part
Measles inh	Molecule
1.2	O=C(CCn1c(=S)oc2ccccc21)N1CCN(c2ccc(F)cc2)CC1
-0.82	CC1(C)Nc2ccc([N+](=O)[O-])cc2NC1=O
-1	Cc1ccc(C2CC(C(F)(F)F)n3nc(C(=O)Nc4cccc(C)c4C)cc3N2)cc1 (stereo not drawn)
-0.35	Cc1ccnc(NC(=O)c2cc3c(=O)[nH]c4ccccc4c3s2)c1
-0.67	CC(=O)N1CCc2cc(S(=O)(=O)NCc3ccco3)ccc21
-0.65	O=C(NCC1COc2ccccc2O1)c1cc(-c2ccncc2)nc2ccccc12 (stereo not drawn)
0.52	Cc1ccc(CSCC(=O)NCc2cccnc2)cc1
-0.16	COc1ccc(OC)c(NC(=O)CCN2C(=O)c3ccncc3C2=O)c1
-1	CC(Sc1nc2ccccc2[nH]1)C(=O)Nc1ccc(S(N)(=O)=O)cc1 (stereo not drawn)
0.6	CC12COC3(C(=O)Nc4ccc([N+](=O)[O-])cc4)CC1CCC32C (stereo not drawn)
0.56	O=C(O)Cc1n[nH]c(=O)[nH]c1=O
0.11	CCC(C)NC(=O)C1CCC(CNS(=O)(=O)c2c(C)cc(C)cc2C)CC1 (stereo not drawn)
-1.1	Cn1c2ccccc2c2c(C(=O)N3CCCCCC3)cn(C3CCCC3)c(=O)c21
0.77	CCC(=O)Nc1cccc(-c2nc3ncccc3o2)c1
0.25	CC(=O)N1CCc2cc(S(=O)(=O)NC(CC(C)C)C(=O)Nc3ccc(C)cc3)ccc21 (stereo not drawn)
0.4	CCC1(C)CC(CC#N)(c2ccccc2OC)CCO1 (stereo not drawn)
1.2	O=C(O)CNC(=O)c1ccco1
1.1	COC(=O)c1cc(-c2cc(C(=O)OC)c3ccccc3n2)nc2ccccc12
